VACV Venus inh = inhibitors of vaccinia virus (Venus reporter); Vaccinia virus Venus reporter expression, fluorescence; Potency, µM (highest dose often 36.5 µM), for the others: at the highest dose activity change, negative = inhibition, usual class: inhibitors; 330,000 tested, 0.46% active; AID 720580; active means well fitted inhibition curve with a large enough effect; inconclusive means small, poorly fitted or top-dose-only effect; inactive means no such curve, though single readings can be large or run the other way; tested in A549 cells; note: nearly all actives have a fitted effect of over 30% in size; inactives centre near -10
VACV mCherry inh = inhibitors of vaccinia virus infection (mCherry reporter signal); 310,000 tested, 0.63% active; Potency, µM (doses to about 36.5 µM), inactives show top-dose activity change, negative = inhibition, usual class: inhibitors; AID 720579; Vaccinia virus mCherry reporter infection, fluorescence; about a quarter of the inactives have no number; active = well fitted inhibition curve with a large enough effect; inconclusive = small, poorly fitted or top-dose-only effect; inactive = no such curve, though single readings can be large or run the other way; tested in A549 cells; note: nearly all actives have a fitted effect of over 35% in size; inactives centre near -10
Starred values were filed as active, the others as inactive; i = inactive; ? = inconclusive; / = not tested or not shown; & = joins results of further samples; [ ] = another dose, or the depositor's remark. % is set by controls: 0 for no effect and ±100 for the full control effect; potency is the fitted concentration of half-maximal effect. Rows were taken by chance; 0.82% or so of the library scored in one or more.

entry	SMILES	VACV Venus inh	VACV mCherry inh
1	CC(=O)c1cccc(NC(=O)CCNC(=O)c2ccccc2Cl)c1	-11.8%	-25.7%
2	CC(C)Cn1cc(NC(=O)N2CCN(c3cccc(Cl)c3)CC2)c2ccccc2c1=O	-3.8%	-7.6%
3	CCN1C(=O)/C(=C\C(=O)c2cccs2)c2cc(Br)ccc21	1.9%	?
4	Cc1ccc(S(=O)(=O)Nc2ccc3[nH]ccc3c2)cc1	-14.5%	?
5	COc1cccc(NC(=O)CN(C)C(=O)CSCc2nc3scc(-c4cccs4)c3c(=O)[nH]2)c1	?	-14.6%
6	COc1cccc(CNS(=O)(=O)c2cn(C)cn2)c1	0.0%	i
7	O=C(O)CC(NC(=O)Nc1ccccc1)c1ccc(OC2CCCC2)cc1 (centres undefined)	-10.7%	-1.2%
8	CCOc1ccc(NC(=O)CSc2nc3ccccc3nc2N2CCOCC2)cc1	-9.9%&-7.6%	-12.4%
9	COc1cc(S(=O)(=O)N2CCCCC2)ccc1NC(=O)c1ccccc1Cl	-11.0%	-27.3%
10	Cc1ccc(C2(O)CN(c3ccccc3C)C3=[N+]2CCS3)cc1 (centres undefined)	-26.2%	?
11	O=C(CCc1nc(-c2ccc(F)cc2)no1)NCc1ccccc1CN1CCOCC1	-8.0%	i
12	O=C(COC(=O)c1ccc(S(=O)(=O)NCc2ccco2)cc1)NC1CCCCC1	-3.9%	-17.4%
13	CCOc1cc(N2CCOCC2)c(OCC)cc1NC(=O)Cc1cccc2ccccc12	-28.0%	-13.8%
14	COc1ccccc1NC(=O)C[n+]1ccccc1	-11.0%	-3.3%
15	COc1ccc(NS(=O)(=O)c2ccc(O)c(NC(=O)c3ccc(S(=O)(=O)N4CCCCCC4)cc3)c2)cc1	-7.3%	-17.6%
16	O=C(NCC(F)(F)F)c1csc([C@@H]2O[C@H](CO)[C@H](O)[C@H](O)[C@H]2O)n1	-8.4%	37.0%[activator]
17	Cn1cccc1Cc1nnc(SCC(=O)N2CCc3ccccc32)n1CCc1ccccc1	-2.2%	-8.0%
18	CCn1c(SCC(=O)C(C)(C)C)nnc1-c1ccccn1	-7.8%	-8.8%
19	CCS(=O)(=O)N1CCN(S(=O)(=O)c2ccccc2[N+](=O)[O-])CC1	-15.5%	-6.0%
20	O=C(Cn1nnnc1-c1ccccc1F)Nc1ccc(OC(F)(F)F)cc1	-12.8%	-7.0%
21	CCN(CC)S(=O)(=O)c1ccc(C)c(NC(=O)CNc2cccc(S(=O)(=O)N3CCOCC3)c2)c1	-4.9%	-28.0%
22	COCC(=O)N/N=C(\C)CC(=O)Nc1ccccc1C(N)=O	-11.8%	-16.2%
23	COc1ccc(CNC(=O)CCCn2nc(C)c([N+](=O)[O-])c2C)cc1OC	-13.9%	i
24	COc1ccc(-c2noc(-c3ccccc3C(=O)Nc3cccnc3)n2)cc1OC	-8.0%	-3.2%
25	O=[N+]([O-])c1ccc(N2CCCC2)c2ncccc12	1.2%	i
26	CCNc1nc(-c2cc3ccccc3o2)cs1	-2.9%	-20.8%
27	Cc1cc(=O)oc2cc(NC(=O)C3CCCC3)ccc12	-9.2%	i
28	COc1ccc(C)cc1NC(=O)c1cc2ccccc2cc1OCC(=O)NCc1ccco1	6.0%	-4.1%
29	Cc1ccc2[nH]c(CNC(=O)c3ccccc3F)cc2c1	1.3%	-5.5%
30	COc1cccc(Nc2nnc(SCC(=O)N3CC(=O)Nc4ccccc43)s2)c1	-4.3%[7.34 µM]	-6.7%[7.34 µM]
31	CN(CC(=O)Nc1cccnc1)S(=O)(=O)c1ccc(Br)cc1	-1.7%	-8.7%
32	O=[N+]([O-])c1ccc(NN=Cc2ccccc2)nc1	-15.2%	i
33	COCCCN1C(=O)C(CC(=O)NCCCN(C)C)CC(C(=O)N2CCOCC2)=C1C (centres undefined)	8.3%	i
34	Cc1nn(C)c(C)c1CN(Cc1nc(-c2ccc(F)cc2F)oc1C)C1CC1	-17.4%	-4.5%
35	COP(=O)(OC)c1ccc(NCc2cc(O)ccc2O)cc1	-4.1%	-11.7%
36	CCCC(=O)Nc1cccc(-c2nc3ccccc3o2)c1	-6.1%	-9.8%
37	COc1ccc(-c2nc3ccccc3s2)cc1NC(=O)c1cc2ccccc2o1	0.2%	i
38	C/C(=N\OCC(=O)Nc1cc(C)cc(C)c1)c1ccc2c(c1)OCCO2	-14.9%	-17.4%
39	N#CC1=C(N)Oc2n[nH]c(-c3ccccn3)c2C1c1c(F)cccc1Cl (centres undefined)	-9.1%	/
40	Cc1cc(C(=O)Nc2nnc(-c3ccccc3)s2)no1	-2.8%	/
41	COC(=O)C1=C(C)NC(C)=C(C(=O)OC)C1c1ccc(-c2cc(Cl)ccc2Cl)o1	-3.2%	-14.2%
42	O=[N+]([O-])c1ccc(C[n+]2ccccc2)cc1	-16.7%	-3.2%
43	CC1C(=O)N2CCCc3cc(NC(=O)c4ccccc4C(F)(F)F)cc1c32 (centres undefined)	0.8%	-7.3%
44	CC1=C(C(=O)NCc2ccc(Cl)cc2)C2(CCCCC2)OC1=O	-16.3%	-12.1%
45	COc1ccccc1CCNC(=O)c1cc2ccccn2n1	-2.4%	-13.9%
46	CCOC(=O)CN1N=C(/C=C/c2ccc(OCC)cc2)CCC1=O	-7.7%	i
47	O=C(NCC(c1cccs1)N1CCOCC1)c1cn(-c2ccccc2)nc1-c1ccc(Cl)cc1 (centres undefined)	?	-12.5%
48	CCc1nnc(SCc2nc(-c3ccc(OC)c(OC)c3)oc2C)c2cc3sc(C)cc3n12	-1.7%	i
49	O=C(OCc1cn([C@@H]2C[C@H](c3ccc(Cl)cc3)N(C(=O)C3CCCCC3)C[C@H]2O)nn1)c1ccccc1	-11.9%	-7.7%
50	COc1ccc(C2=NS(=O)(=O)N(C)C(C(=O)N3CCCCC3)=C2)cc1OC	-3.4%	-8.9%
51	Cc1cccc(NC(=O)C2CC(O)CN2C(=O)OCc2ccccc2)c1 (centres undefined)	-11.1%	/
52	Cc1ccc(C2CCN(C(=O)Nc3ccc(Cl)c(Cl)c3)C2)cc1 (centres undefined)	-9.4%	8.9%
53	O=C1/C(=C\c2ccccc2)C2OCC=C3CN4CCC56c7ccccc7N1C5C2C3CC46 (centres undefined)	?	-15.2%
54	C=CCN(CC=C)CCCOc1ccc(Br)cc1Cl	5.7%	-18.4%
55	CCCSc1nc2c(c(=O)n(C)c(=O)n2C)n1Cc1ccc(C)cc1	-6.8%	-3.0%
56	O=C(COC(=O)c1ccc(O)cc1O)c1ccc(Cl)cc1	-5.0%	i

(next part)
entry	SMILES	VACV Venus inh	VACV mCherry inh
57	CNc1c(Br)cc(/C=C2\C=C(C(O)c3cc(Br)c(NC)c(Br)c3)c3ccccc32)cc1Br (centres undefined)	0.7%	-5.6%
58	Oc1ccc(Cl)cc1C1C=C(c2ccc3c(c2)OCO3)NC(c2ccc(C(F)(F)F)cc2)N1 (centres undefined)	-11.5%	15.8%
59	C/C(N)=C(/C#N)C(=O)CN1CCCCC1	2.1%	0.4%
60	COc1ccc(C(=O)C(=O)N2CCN(C(=O)OCc3ccccc3)CC2)cc1	-4.5%	-27.7%
61	COc1ccc(CCNC(=O)Cn2c(=O)c3sccc3n(CC(=O)Nc3cccc(C(F)(F)F)c3)c2=O)cc1OC	-7.9%	-15.0%
62	COc1ccc(CCNC(=O)/C=C/c2ccc3ccccc3n2)cc1OC	?	?
63	O=C1Nc2ccccc2C(O)(C(=O)NCc2ccc3c(c2)OCO3)N1c1ccc(Cl)c(Cl)c1 (centres undefined)	-14.2%	-24.8%
64	Cc1ccccc1C(=O)OC1OC(=O)C(Cl)=C1N1CCOCC1 (centres undefined)	-14.4%	i

Whole records, quoted from the list. Values in the order: VACV Venus inh, VACV mCherry inh
COc1ccc(CCNC(=O)Cn2c(=O)c3sccc3n(CC(=O)Nc3cccc(C(F)(F)F)c3)c2=O)cc1OC is entered as -7.9%, -15.0%
O=C1Nc2ccccc2C(O)(C(=O)NCc2ccc3c(c2)OCO3)N1c1ccc(Cl)c(Cl)c1 (centres undefined) is entered as -14.2%, -24.8%

Additional entries follow.
entry	SMILES	VACV Venus inh	VACV mCherry inh
65	CCCCOc1ccc(NC(=O)Nc2nnc(C)s2)cc1	-9.1%	i
66	COc1ccc(S(=O)(=O)N2CCC(O)(c3ccc(Cl)cc3)CC2)cc1	?	-27.4%
67	CC(C)c1ccc(/C=C/c2ccc(=O)n(C)n2)cc1	-7.2%	1.5%
68	CC(=O)N(C(C)=O)c1nc(-c2ccccc2)cn1/N=C/c1cccc([N+](=O)[O-])c1	-11.4%	-12.5%
69	COc1ccccc1C=C(C(=O)c1ccccc1)c1ccccc1	-8.0%	i
70	CCCN(C(=O)c1nn(-c2ccc(C)cc2)c(=O)c2c1c1ccccc1n2C)c1ccccc1C	-10.7%	-14.8%
71	COc1ccc(OC)c(CNS(=O)(=O)c2ccc(-c3coc(C)n3)cc2)c1	-13.0%	-15.3%
72	c1cncc(CNc2cc(-c3ccc4c(c3)OCO4)ncn2)c1	14.8%	i
73	O=C1CC(c2ccccc2)Cc2[nH]c(=O)c(C(=O)Nc3cccc(Cl)c3)cc21 (centres undefined)	-9.8%	-9.1%
74	Oc1c(C(c2ccc(F)cc2)N2CCN(Cc3ccccc3)CC2)sc2nc(-c3ccco3)nn12 (centres undefined)	-7.0%	-8.6%
75	CCCCn1c(-c2ccc(Cl)cc2)nc2c(=O)n(C)c(=O)[nH]c21	-6.5%	/
76	O=C(CNCc1ccco1)Nc1ccc(N2CCCCCC2)cc1	-8.3%	-21.3%
77	Cc1cnc(C(=O)OCC(=O)Nc2sc3c(c2C(N)=O)CCCC3)cn1	-4.0%	-20.4%
78	CC1(C)CC(=O)C(C(C2=C(O)CC(C)(C)CC2=O)c2cccs2)C(=O)C1 (centres undefined)	-9.2%	-21.9%
79	O=C1Nc2ccccc2C12OCCO2	-13.2%	-17.9%
80	CCc1cc(C(=O)OC)c(NC(=O)CCCC(=O)O)s1	-10.4%	/
81	COc1ccc2nc(-c3ccco3)c(-c3ccco3)nc2c1	-10.1%	i
82	CC(CCc1ccccc1)NC(=O)COC(=O)c1cccc2ccccc12 (centres undefined)	-8.9%	i
83	Cc1cc(C)cc(NC(=O)CSc2nc(-c3cccc(Cl)c3)nc3c2Cc2c(CO)cnc(C)c2O3)c1	-8.7%	-8.4%
84	CCCCCCNC(=O)C(C#N)c1nc2ccccc2nc1N1CCCC1 (centres undefined)	-5.1%	/
85	CCN(CC)c1ccc(/C=N/OCC(=O)N2CCCc3ccccc32)cc1	-27.8%	?
86	CC1CCC(NC(=O)c2cc3c(s2)CCCC3)CC1 (centres undefined)	-11.9%	-2.1%
87	COc1cc(CNc2ccc3[nH]c(=O)[nH]c3c2)ccc1OCc1ccc(C)cc1	?	?
88	O=[N+]([O-])c1ccc(CSc2nnc(SCc3ccccc3)s2)cc1	3.7%	i

Screen by screen, from the results shown.
Entries 16 to 22 in VACV Venus inh read -8.4%, -2.2%, -7.8%, -15.5%, -12.8%, -4.9%, -11.8%
Entries 16 to 22 in VACV mCherry inh read 37.0%[activator], -8.0%, -8.8%, -6.0%, -7.0%, -28.0%, -16.2%

The list continues:
entry	SMILES	VACV Venus inh	VACV mCherry inh
89	COc1ccc(CCNC(=O)CCc2c(C)nc3c4cccnc4nn3c2C)cc1OC	-7.5%	i
90	CCOC(=O)C1=NN(c2ccc(OC)cc2)C(c2ccccc2)CC1=O (centres undefined)	-14.1%	i
91	O=C1c2ccccc2C(=O)N1CCC1(O)C(c2ccccc2)=Nc2ccccc21 (centres undefined)	0.0%	-3.6%
92	COc1ccc(O)c(-c2cc(-c3cccs3)[nH]n2)c1	?	-13.5%
93	O=c1c2ccccc2nc2n1C(CSc1ccc(Cl)cc1)CN2 (centres undefined)	-11.1%	/
94	Cc1ccc(NC(=O)CCc2nnc3n(C)c(=O)c4sccc4n23)cc1C	3.1%	-6.4%
95	Cc1cc2oc(=O)cc(-c3ccccc3)c2c(C)c1-c1ccc(OC(F)(F)F)cc1	0.3%	-9.8%
96	CCC(=O)Nc1cccc(NC(=O)c2cc3ccccc3o2)c1	-15.8%	-24.2%
97	O=C(NC1CCCCC1)N1CCNCC1	1.6%	-7.8%
98	CC(C)NC(=O)N(C)C[C@H]1Oc2ccc(NC(=O)c3ccncc3)cc2C(=O)N([C@H](C)CO)C[C@@H]1C	-19.9%	i
99	COC(CNc1ncnc2c1cnn2C)OC	-7.7%	-3.3%
100	Cc1cc(C)c(OCC(=O)N2CCN(c3ncc(C(F)(F)F)cc3Cl)CC2)c(C)c1	-21.1%	-2.3%
101	Cc1cc(=O)oc2cc(OCC(=O)N3CCOCC3)c(Cl)cc12	-8.0%	-4.2%
102	CCCn1c2c(c(O)c(C(=O)NCCCN(CC)CC)c1=O)CCCC2	-28.3%	-18.2%
103	CN(C)S(=O)(=O)c1cc(NC(=O)CN2C(=O)NC3(CCCc4ccccc43)C2=O)ccc1Cl (centres undefined)	-18.2%	-22.6%
104	O=C(Nc1ccccn1)C(NS(=O)(=O)c1cccc2nsnc12)c1ccccc1 (centres undefined)	-14.0%	-14.7%
105	O=C(COc1ccc(Cl)cc1)Nc1ccc(N2CCN(C(=O)c3ccco3)CC2)cc1	?	-20.0%
106	CC(C)NC(=O)C1CCN(C2CCN(Cc3nc4ccccc4s3)CC2)CC1	-1.2%	i
107	O=C(c1ccc2c(=O)n(Cc3ccccc3Cl)c(=S)[nH]c2c1)N1CCCC1	-4.0%	-5.9%
108	Cc1ccc(C(=O)N/C(=C/c2cccnc2)C(=O)NCc2ccco2)cc1	-4.7%	i
109	N=C1SC(CC(=O)Nc2ccc([N+](=O)[O-])cc2)C(=O)N1c1ccccc1 (centres undefined)	-1.3%	i
110	COc1ccc(CNC(=O)COC(=O)c2ccc3c(c2)OCCO3)cc1	6.3%	-20.7%[1.46 µM]

Compound activity deposited in PubChem BioAssay by National Center for Advancing Translational Sciences (NCATS).
